Screens deposited in PubChem BioAssay by National Center for Advancing Translational Sciences (NCATS).
Cruzain inh Det = inhibitors of Trypanosoma cruzi cruzain with detergent. purified cruzain, Z-FR-AMC fluorescence, 0.01% Triton. 0.43% of 200,000 active. P25779. Potency, µM, inactives show max response, negative = inhibition, most hits filed as inhibitors;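 further: plate controls were neutral wells for no effect and buffer without enzyme for full effect; nearly all actives have a fitted effect of over 40% in size; top concentration of the series not given in the record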
Target sequence (P25779 123-467 limits assumed): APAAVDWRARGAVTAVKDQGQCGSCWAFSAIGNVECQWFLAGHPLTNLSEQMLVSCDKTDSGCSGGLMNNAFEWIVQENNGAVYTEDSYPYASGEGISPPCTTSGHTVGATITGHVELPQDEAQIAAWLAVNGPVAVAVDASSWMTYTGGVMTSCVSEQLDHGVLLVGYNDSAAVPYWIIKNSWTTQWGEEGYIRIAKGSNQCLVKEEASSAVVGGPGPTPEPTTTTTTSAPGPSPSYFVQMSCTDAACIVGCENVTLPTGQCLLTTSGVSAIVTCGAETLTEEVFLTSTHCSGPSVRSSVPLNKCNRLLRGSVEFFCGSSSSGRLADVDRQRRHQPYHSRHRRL
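Compounds were screened in titration against cruzain (1.5 nM) with 0.01% Triton X-100 to counter colloidal aggregation. Activity was the AMC fluorescence increase over 60 s after adding 2 uM Z-FR-AMC at pH 5.5.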
RE007 growth inh = less growth of the S. pombe RE007 Vpr strain; S. pombe RE007 Vpr strain, BacTiter-Glo ATP luminescence, 24 h; control for the full effect not named in the record; Potency, µM (doses to about 92.2 µM), inactives show top-dose activity change, negative = less growth; 0.21% of 360,000 active; active = well fitted falling curve with a large enough effect; inconclusive = small, poorly fitted or top-dose-only effect; inactive = no such curve, though single readings can be large or run the other way;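 further: on the % scale 0 is the no-effect control and ±100 the full control effect; nearly all actives have a fitted effect of over 50% in size; the assay follows cell death caused by Vpr and the record does not say whether a fall means rescue or toxicity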
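Fission yeast strain RE007, carrying one chromosomally integrated HIV-1 vpr copy, was seeded at OD 0.01 in PMG+AL medium with 23 nL pinned compound. After 24 h at 30 °C and 99% humidity, viability was read by BacTiter-Glo luminescence.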
Lassa entry inh = Lassa virus entry inhibition | Lassa virus pseudotype entry inhibition, cell reporter; control for the full effect not named in the record | Potency, µM (titrated, usually from 37.9 µM), inactives show at the top dose activity change, negative = inhibition, usual class: inhibitors | 1.2% of 300,000 active; active means well fitted inhibition curve with a large enough effect; inconclusive means small, poorly fitted or top-dose-only effect, or effect the other way; inactive means flat fitted curve, though single readings scatter; tested in HEK293 cells; further: on the % scale 0 is the no-effect control and ±100 the full control effect; nearly all actives have a fitted effect of over 50% in size; luciferase read-out
StopGo reporter = lowers the luciferase signal of an FMDV 2A StopGo reporter; AID 1159524; human cells with a luciferase reporter of 2A StopGo recoding; control for the full effect not named in the record; Potency, µM (highest dose often 57.9 µM), without a hit: at the highest dose signal change, negative = less light; 1.2% of 410,000 active; active = well fitted falling curve with a large enough effect; inconclusive = small, poorly fitted or top-dose-only effect; inactive = no such curve, though single readings can be large or run the other way; tested in HEK293T cells; further: on the % scale 0 is the no-effect control and ±100 the full control effect; nearly all actives have a fitted effect of over 45% in size; luciferase light after 4 h
SARS PLP yeast = inhibitors of SARS-CoV papain-like protease in yeast | 0.19% of 330,000 active | S. cerevisiae expressing SARS-CoV PLpro, growth rescue; control for the full effect not named in the record | Potency, µM (titrated, usually from 32.9 µM), inactives show at the highest dose activity, positive = growth rescue; active means well fitted rising curve with a large enough effect; inconclusive means small, poorly fitted or top-dose-only effect; inactive means no such curve, though single readings can be large or run the other way; further: 0% is about no effect; nearly all actives have a fitted effect of over 55% in size; growth read by luminescence after 48 h
NS1 function inh = inhibitors of influenza NS1 protein function | 0.4% of 270,000 active | S. cerevisiae slowed by influenza A NS1, growth recovery by OD600 | Potency, µM (doses to about 46.1 µM), inactives show at the highest dose activity, positive = more growth | AID 2326; active means well fitted rising curve with a large enough effect; inconclusive means small, poorly fitted or top-dose-only effect; inactive means no such curve, though single readings can be large or run the other way; further: nearly all actives have a fitted effect of over 50% in size
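In this qHTS, NS1 from influenza A is expressed in budding yeast, where it slows growth. Cells are switched from glucose to 2% galactose medium (pH 6.0, -URA), treated with compound, and growth recovery is read at OD600.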
Cruzain noTriton = inhibitors of Trypanosoma cruzi cruzain without detergent; 2.3% of 200,000 active; purified cruzain, Z-FR-AMC fluorescence, no detergent; P25779; Potency, µM, for the others: max response, negative = inhibition, most hits filed as inhibitors; AID 1476;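 further: plate controls were enzyme without inhibitor for no effect and buffer without enzyme for full effect; nearly all actives have a fitted effect of over 40% in size; top concentration of the series not given in the record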
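Purified cruzain at 1.5 nM, pre-incubated 15 min with compound at room temperature in 100 mM sodium acetate pH 5.5, 5 mM DTT, 0.00005% Triton X-100. Reaction started with 2 uM Z-FR-AMC; AMC fluorescence increase over 60 s gives rate.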
Marburg entry inh = blocks Marburg virus binding to or entry into cells; 1.8% of 300,000 active; Potency, µM (doses to about 37.8 µM), inactives show at the highest dose activity change, negative = inhibition, hits mostly inhibitors; Marburg virus pseudotyped entry inhibition, cell reporter; control for the full effect not named in the record; about a third of the inactives were read at about 46 µM; active = well fitted inhibition curve with a large enough effect; inconclusive = small, poorly fitted or top-dose-only effect, or effect the other way; inactive = flat fitted curve, though single readings scatter; tested in HEK293 cells; about a fifth of its hits are not listed in these tables; further: on the % scale 0 is the no-effect control and ±100 the full control effect; luciferase read-out
Numbers without * were called inactive; ? = inconclusive; · = no result given; [ ] = dose if it differs, or a comment. Unless noted, the call rests on the fitted dose curve; in most records, active means well fitted curve in the direction sought with a large enough effect; inconclusive means small, poorly fitted or top-dose-only effect, or another doubt; inactive means no such curve, though single readings can be large; an effect the other way counts as inactive or inconclusive. Potency means the concentration at half of the fitted maximal effect. An unsorted share of the library; any-hit rate near 4.5%.

1. COc1cc(C(C#N)N2CCOCC2)ccc1O (centres undefined)
2. CCOC(=O)c1cc(NC(=O)NCc2ccco2)c(C)nc1C
3. CC1CCN(C(=O)CN(c2ccc(Oc3ccccc3)cc2)S(C)(=O)=O)CC1
4. COc1cccc(C2C(C#N)=C(N)N(N(C)C)C3=C2C(=O)CC(C)(C)C3)c1OC (centres undefined)
5. CCOC(=O)Cc1csc(NC(=O)/C=C/c2ccc(Cl)cc2)n1
6. CC(=O)COc1ccc2oc(=O)cc(-c3cc4ccccc4o3)c2c1
7. CCOC(=O)c1c(NC(=O)C(C)Oc2ccccc2F)sc(C(C)=O)c1C (centres undefined)
8. CCCCn1c(=O)c(CCC(=O)OCC(=O)NCc2ccc(OC)c(OC)c2)nc2ccccc21
entry no.	1	2	3	4	5	6	7	8
Cruzain inh Det	4.8%	2.0%	-6.1%	·	·	·	-0.7%	·
RE007 growth inh	5%	4%	7%	-2%	5%	-14%	·	-9%
Lassa entry inh	?	-5%	-7%	·	·	·	2%[46.1 µM]	12%[46.1 µM]
StopGo reporter	-8%	-8%	?	?	?	-17%	-20%	29%
SARS PLP yeast	5%	1%	1%	-1%	0%	-8%	·	1%
NS1 function inh	?	-4%	-52%	3%	3%	-1%	·	·
Cruzain noTriton	1%	-2%	?	·	·	·	1%	·
Marburg entry inh	-7%	-2%	-19%	6%	·	·	8%[46.1 µM]	-4%[46.1 µM]

9. O=C(CN1C(=O)NC2(CCCCC2)C1=O)Nc1ccccc1N1CCCC1
10. O=C(NC1CCCC1)C1CCN(c2nccs2)CC1
11. COc1ccc(Cl)cc1C(=O)NCC(=O)OCc1ccccc1
12. Cc1ccc(Cn2c(O)c(N=O)c3ccccc32)cc1
13. Cn1c(SCC(=O)NCCc2ccccc2)ncc(C(=O)Nc2ccc(F)cc2)c1=O
14. COc1cccc(C2C(C(=O)Nc3ccc(Cl)cc3)=C(C)Nc3nc4ccccc4n32)c1OC (centres undefined)
15. COCCN(C(=O)CSc1n[nH]c(-c2ccccc2)n1)c1c(N)n(Cc2ccccc2)c(=O)[nH]c1=O
16. CCOc1ccc(-c2nnn(CC#N)n2)cc1OC
entry no.	9	10	11	12	13	14	15	16
Cruzain inh Det	·	-1.6%	·	·	·	-2.3%	·	-3.8%
RE007 growth inh	-5%	-10%	-6%	10%	7%	·	14%	4%
Lassa entry inh	-7%	12%	9%	?	-1%	-12%[46.1 µM]	2%	-4%
StopGo reporter	-21%	-13%	10%	-5%	?	-8%	-12%	-16%
SARS PLP yeast	-4%	0%	-2%	1%	10%	·	-1%	30%
NS1 function inh	·	9%	·	-54%	·	·	·	-2%
Cruzain noTriton	·	-17%	·	·	·	-6%	·	-10%
Marburg entry inh	-7%	0%	-9%[46.1 µM]	-19%[46.1 µM]	?	16%[46.1 µM]	-1%	4%

Part of the list above in another layout:
# | smiles | Cruzain inh Det | RE007 growth inh | Lassa entry inh | StopGo reporter | SARS PLP yeast | NS1 function inh | Cruzain noTriton | Marburg entry inh
11 | COc1ccc(Cl)cc1C(=O)NCC(=O)OCc1ccccc1 | · | -6% | 9% | 10% | -2% | · | · | -9%[46.1 µM]
12 | Cc1ccc(Cn2c(O)c(N=O)c3ccccc32)cc1 | · | 10% | ? | -5% | 1% | -54% | · | -19%[46.1 µM]

Of the compounds above, two have a furan ring, fused or not.
2. CCOC(=O)c1cc(NC(=O)NCc2ccco2)c(C)nc1C
6. CC(=O)COc1ccc2oc(=O)cc(-c3cc4ccccc4o3)c2c1
entry no.	2	6
Cruzain inh Det	2.0%	·
RE007 growth inh	4%	-14%
Lassa entry inh	-5%	·
StopGo reporter	-8%	-17%
SARS PLP yeast	1%	-8%
NS1 function inh	-4%	-1%
Cruzain noTriton	-2%	·
Marburg entry inh	-2%	·

Following part
17. Cc1nc2nc(-c3ccc(Cl)cc3)cn2nc1C
18. O=C(/C=C/c1ccco1)NCCc1ccc(F)cc1
19. O=S(=O)(Cc1ccccc1)NCc1ccccn1
20. CSc1cccc(CN2CCC(n3nccc3NC(=O)C3CC3)CC2)c1
21. O=C(CNCCc1ccc(Cl)cc1Cl)NCc1ccco1
22. Cc1ccc2cc(C)c3nnc(SCC(=O)N4CCCc5ccccc54)n3c2c1C
23. O=C(c1ccc(S(=O)(=O)c2ccccc2)cc1)N1CCc2ccccc2C1
24. COC(=O)c1ccc(Cl)c(NC(=O)CSc2ncn[nH]2)c1
entry no.	17	18	19	20	21	22	23	24
Cruzain inh Det	5.9%	·	5.0%	·	·	-1.6%	1.2%	2.7%
RE007 growth inh	-14%	0%	2%	-15%	-19%	·	-24%	-12%
Lassa entry inh	?	19%[46.1 µM]	-1%	·	1%	·	-15%	0%
StopGo reporter	?	22%	-2%	-17%	-10%	·	0%	-22%
SARS PLP yeast	-5%	-1%	7%	6%	0%	-9%	3%	10%
NS1 function inh	1%	2%	-1%	12%	·	11%	-8%	?
Cruzain noTriton	-24%	·	1%	·	·	?	11%	-7%
Marburg entry inh	-12%	18%[46.1 µM]	1%	·	-1%[46.1 µM]	·	?	10%

25. Cc1ccc(CNC(=O)Cn2c(=O)n(-c3ccc(C)c(F)c3)c(=O)c3sc4ccccc4c32)cc1
26. Cc1ccc(S(=O)(=O)C2(C(=O)N3CCCCCC3)CC2)cc1
27. Nc1c(-c2nc(-c3ccccc3)cs2)c2ccccn2c1C(=O)c1ccc2c(c1)OCO2
28. Cc1ccc(NC(=O)COc2ccc(N3CC(C(N)=O)CC3=O)cc2)c(C)c1 (centres undefined)
29. NS(=O)(=O)c1ccc(CCNC(=O)c2cccnc2)cc1
30. O=C(Nc1ccccc1N1CCOCC1)c1cccs1
31. CC(C)C[C@@H]1NC(=O)[C@H](Cc2ccc(O)cc2)NC(=O)c2cc([N+](=O)[O-])cc(I)c2NCCC[C@@H](C(N)=O)NC1=O
32. COc1ccc(C)cc1-n1c(SCC(=O)Nc2cc(C)on2)nc2ccccc2c1=O
entry no.	25	26	27	28	29	30	31	32
Cruzain inh Det	0.0%	2.0%	-7.4%	·	3.3%	-3.9%	-6.8%	·
RE007 growth inh	·	-2%	·	-16%	3%	11%	-4%	30%
Lassa entry inh	-14%[46.1 µM]	16%	?	·	2%	-8%	7%	10%
StopGo reporter	-13%	21%	27%	-7%	23%	-19%	-6%	-22%
SARS PLP yeast	·	-1%	·	-3%	?	17%	13%	-1%
NS1 function inh	·	2%	·	7%	0%	-1%	?	7%
Cruzain noTriton	0%	10%	?	·	?	-8%	-12%	·
Marburg entry inh	-9%[46.1 µM]	14%	?	?	-1%	1%[46.1 µM]	-1%	?

33. CC(C)n1c(=O)c(C=Nc2ccc(F)cc2)c(O)n(Cc2ccco2)c1=O
34. Cn1c(O)c(C=NCCN2CCNCC2)c(=O)n(C)c1=O
35. N#Cc1ccccc1S(=O)(=O)N1CCN(C(=O)C2CCC2)CC1
36. Cc1cccc(C)c1NC(=O)CNC(=O)C(Cc1ccccc1)NC(=O)c1ccccc1 (centres undefined)
37. Cc1ccc(SC(C)C(=O)O/N=C(\N)c2ccncc2)cc1 (centres undefined)
38. COc1ccc(C(=O)NC(=S)N2CCCCC2)cc1[N+](=O)[O-]
39. COc1ccc(NC(=O)Cc2cccc3ccccc23)cc1
40. Cc1ccc2oc(-c3cccc(NC(=O)c4ccc(N5CCC(C)CC5)c([N+](=O)[O-])c4)c3)nc2c1
entry no.	33	34	35	36	37	38	39	40
Cruzain inh Det	-12%	-0.9%	·	·	·	-0.2%	·	6.1%
RE007 growth inh	-13%	4%	0%	0%	4%	1%	4%	·
Lassa entry inh	?	-7%	-4%	-2%	·	-3%	·	-6%[46.1 µM]
StopGo reporter	?	0%	-6%	-6%	?	-13%	28%	-8%
SARS PLP yeast	13%	4%	·	0%	-6%	0%	0%	·
NS1 function inh	1%	6%	·	10%	-31%	4%	-2%	·
Cruzain noTriton	-12%	1%	·	·	·	-5%	·	10%
Marburg entry inh	-8%	-3%	-3%	7%	·	0%	·	-6%[46.1 µM]

41. O=[N+]([O-])c1cc2c(cc1/C=N/n1c(-c3ccccc3)n[nH]c1=S)OCO2
42. Cc1ccc(C(=O)NCC(=O)OCC(=O)c2ccc3c(c2)OCCO3)cc1C
43. O=C(Nc1ccc(O)cc1)c1cccc(Oc2ccc([N+](=O)[O-])cc2)c1
44. CC[C@]12CCCN3CCc4c(n(c5ccccc45)C(=O)C1)C32 (some centres undefined)
45. CSc1ccc(CN2CCC(CO)(Cc3ccc(Cl)cc3)CC2)cc1
46. COc1ccc(/C=C2\SC(=S)N(CCCC(=O)NNC(=O)c3ccccc3O)C2=O)cc1
47. CCCOC(=O)c1[nH]c2c(c1C)C(=O)CC(c1cccs1)C2 (centres undefined)
48. O=C(Cc1ccc(Br)cc1)N1CCN(Cc2ccccc2)CC1
49. O=C(CN1CC(c2ccccc2)CC1=O)Nc1ccc2c(c1)OCO2 (centres undefined)
50. Cc1ccc(S(=O)(=O)N(C)C)cc1NC(=O)COC(=O)CNC(=O)C12CC3CC(CC(C3)C1)C2
51. C#CC(C)(CC)NC(=O)c1cnn2c(C(F)F)cc(-c3ccccc3OC)nc12 (centres undefined)
entry no.	41	42	43	44	45	46	47	48	49	50	51
Cruzain inh Det	6.1%	13µM*	·	·	·	·	0.2%	2.3%	-2.3%	·	1.2%
RE007 growth inh	-1%	17%	15%	2%[18.4 µM]	-13%	6%	3%	-10%	6%	12%	·
Lassa entry inh	-5%	-15%	?	·	13µM*	2.2µM*	-9%	?	13%	-22%	-1%[46.1 µM]
StopGo reporter	-7%	21%	-29%	-13%	?	4.5µM*	0%	16%	28%	-18%	16%
SARS PLP yeast	6%	0%	0%	0%	1%	2%	11%	-2%	-11%	3%	·
NS1 function inh	24%	-16%	2%	-1%	-1%	·	-3%	-26%	-3%	·	·
Cruzain noTriton	0%	13µM*	·	·	·	·	-29%	-23%	-2%	·	-4%
Marburg entry inh	-2%	-11%[46.1 µM]	?	·	?	?	?	?	-2%	-11%	·
